# HCMV UL50-53 inh – inhibitors of HCMV UL50-UL53 interaction, biochemical, HTRF. 190,000 compounds, 0.15% hits. normalized percent inhibition. HCMV UL50-UL53 nuclear egress complex (human cytomegalovirus). inhibition, % (no concentration beside the values);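 active = both replicates at 50% or more, plus weaker picks with an unusually low signal ratio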;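 also: stock transfer was 100 nL into about 20 µL; 0% = negative control wells and 100% = wells with untagged competitor protein; inactives centre near -12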
# Sa growth 42C – S. aureus growth inhibition at 42 and 30 °C, primary screen, LtaS inhibitor project, RN4220, two temperatures; OD600, 20 h, 42 °C; hits give low values; relative growth, % (no concentration beside the values); 170,000 compounds, 0.53% hits; AID 720641, 2013;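 active = growth at 42 °C up to 50% and 20 or more points under that at 30 °C, or under 10% at both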;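 also: 300 nL library stock went into each well; scaled to the means of positive and negative controls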
# GIV Gai3 FP – inhibitors of GIV peptide binding to Galpha-i3, primary screen, biochemical, fluorescence polarization, FITC-GIV GBA peptide, rat Galphai3 | AID 1224905, 2016 | 210,000 compounds, 0.42% hits | percent of control (FP), % (concentration not given with the values) | 90 min; hits give low values; scaled: aluminum fluoride 0%, vehicle 100% | Guanine nucleotide-binding protein G(i) subunit alpha-3 (Rattus norvegicus), P08753;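 active = replicate mean at 85% of control or lower, very high polarization wells dropped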;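 also: wells of about 15 µL received 100 nL stock; the first replicate is given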
# Target sequence (P08753 whole entry, looked up): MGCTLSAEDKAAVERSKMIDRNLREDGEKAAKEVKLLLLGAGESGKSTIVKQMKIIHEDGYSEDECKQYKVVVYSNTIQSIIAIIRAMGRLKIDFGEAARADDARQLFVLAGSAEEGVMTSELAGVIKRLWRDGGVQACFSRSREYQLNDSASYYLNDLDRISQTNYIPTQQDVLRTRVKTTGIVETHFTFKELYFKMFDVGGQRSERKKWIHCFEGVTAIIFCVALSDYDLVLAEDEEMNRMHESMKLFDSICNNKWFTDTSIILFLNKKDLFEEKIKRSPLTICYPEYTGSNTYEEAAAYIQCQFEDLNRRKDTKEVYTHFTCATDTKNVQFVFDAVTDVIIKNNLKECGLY
# Sa growth 42C second temp – further read-out of Sa growth 42C, marked with its call; relative growth, %; measured here: growth at 30 °C;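 optical density after 20 h as mean of two plates; 100% = untreated growth and lower means inhibition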
# Active calls of the source: *; · = no result given; & = joins results of further samples.
# Every second line gives: HCMV UL50-53 inh	Sa growth 42C	Sa growth 42C second temp	GIV Gai3 FP
O=C(NCCCN1CCOCC1)C1c2ccccc2Oc2ccccc21
    -1	106	85	104
CCc1cc2c(=O)[nH]cnc2s1
    9&-27&17	116&115&74	101&75&100	106&102&105
Oc1c(C(c2ccccc2F)N2CCN(c3ccccc3F)CC2)sc2nc(-c3ccco3)nn12 (stereo not given)
    ·	87	54	102
CC1(C)S[C@@H]2[C@H](NC(=O)Cc3ccccc3)C(=O)N2[C@H]1C(=O)O
    -6&-18	-0.9*	-1.4*	·
O=c1cc(-c2ccccc2Cl)c2c([nH]1)CCC2
    -11	81	86	106
Cc1cccc(CNC(=O)c2cnc3sc(N4CCCCCC4)nn3c2=O)c1
    ·	94	100	107
CNC(=O)N(O)C1N(c2ccccc2)C(=S)SC1(C)C (stereo not given)
    -13	100	95	97
CC(O)Cn1c(NCc2ccccc2)nc2c1c(=O)n(C)c(=O)n2C (stereo not given)
    -31	87	77	97
CP(=O)(Nc1cc(Cl)ccc1Cl)c1nc2c(s1)CCCC2 (stereo not given)
    -16	84	74	99
Cc1ccc2oc(=O)n(CCc3noc(-c4cc(C)on4)n3)c2c1
    -1	113	92	108
COc1ccc(CNC(=O)C(NS(=O)(=O)c2cccc3nsnc23)c2ccccc2)cc1 (stereo not given)
    -68	101	89	100
CCc1ccccc1NC(=O)Cc1ccc(NC(=O)N2CCCCc3ccccc32)cc1
    ·	138	94	102
CC(C)CCNC(=O)Cn1nc(N2CCN(c3ccccc3)CC2)ccc1=O
    -40	86	92	102&110
CCCOC(=O)Nc1cccc(C(=O)OCCC)c1
    ·	99	75	101
CSc1nc2c(sc3ccccc32)c(=O)n1CCCC(=O)NC1CCCCC1
    0	101	88	102
Cc1ccc(Nc2ncc(C(=O)NCCCN3CC(C)CC(C)C3)c3ccccc23)cc1Cl (stereo not given)
    ·	110	86	106
CSc1nc2ccccc2n1N
    -25	100	91	·
CN(C)C(=O)CN1C(=O)COc2ccc(C(=O)NCc3ccc4c(c3)OCO4)cc21
    -26	·	·	105
O=C(N/N=C/c1ccco1)c1ccc(CN2c3cccc4cccc(c34)S2(=O)=O)cc1
    -22	104	87	·
NNC(=O)c1oc2nc(-c3ccccc3)cc(-c3ccco3)c2c1N
    -63	92	51	114
Cc1ccccc1NC(=O)NCCCN1CCN(c2ccccc2F)CC1
    68	102	107	108
CCc1cccc(C)c1NC(=O)C1CCCN1S(=O)(=O)c1cccc2nsnc12 (stereo not given)
    -108	97	79	104
CCOc1ccc(N2C(=O)C(CC(=O)Nc3ccccc3)N(CCN3CCN(C)CC3)C2=S)cc1 (stereo not given)
    ·	128	99	102
O=C(CC(Nc1ccccc1)C(=O)O)c1ccccc1 (stereo not given)
    -35	59	64	·
Cc1cc(NC(=O)Nc2ccc3nc(N4CCOCC4)cc(C)c3c2)ccc1Br
    14	·	·	102
O=C(Cn1nc(-c2ccccc2)c2cnc3ccc(F)cc3c21)NC1CCCC1
    ·	82	91	100
COc1ccc(C(C(=O)NC2CCCC2)N(C(=O)c2ccco2)c2ccc(NC(C)=O)cc2)cc1OC (stereo not given)
    -27	81	100	100
Cc1ccc(Nc2nn(CN3CCOCC3)c(=S)s2)cc1
    -35	56	72	·
COc1nccn(-c2ccc(C)c(Cl)c2)c1=O
    -68	·	·	106
CCc1nc(SCc2cc(=O)c3cc(C)ccc3[nH]2)n[nH]1
    ·	82	86	106
Cc1ccc(C(=O)NCCc2nc(-c3ccc(F)cc3)n[nH]2)cc1
    0	·	·	96
O=C(CN1CCCC1c1cccs1)NC(=O)Nc1ccccc1 (stereo not given)
    -30	90	84	·
Cc1ccc(Nc2nc(Nc3ccccc3)c3cnn(C)c3n2)cc1C
    -4	·	·	105
COc1ccc(-c2cc(-c3cc(C)ccc3O)[nH]n2)cc1
    0	·	·	101
CCN(CC)c1ncc(NS(=O)(=O)c2cc(C)c(C)cc2C)cc1C(=O)O
    -40	·	·	107
Cc1ccc(CNc2nc3nc(C)c(CCC(=O)Nc4nccs4)c(=O)n3[nH]2)cc1
    -26	·	·	105
COc1ccc(NC(C)=O)cc1NC(C)C(=O)NC(C)c1ccc(F)cc1 (stereo not given)
    -28	90	90	·
CCc1nc2scc(-c3ccc(Br)cc3)c2c(=O)o1
    -7	·	·	106
Clc1ccc(-c2noc3ncnc(NC4CCCC4)c23)cc1
    -11	107	88	105
COC(=O)c1ccccc1NC(=O)Cc1nc(-c2ccc(OC)cc2)no1
    ·	82	80	110

# Record cards (already shown). Order of screens: HCMV UL50-53 inh | Sa growth 42C | Sa growth 42C second temp | GIV Gai3 FP
# Results for COc1ccc(NC(C)=O)cc1NC(C)C(=O)NC(C)c1ccc(F)cc1 (stereo not given) = -28 | 90 | 90 | ·
# Results for CCc1nc2scc(-c3ccc(Br)cc3)c2c(=O)o1 = -7 | · | · | 106
# Results for Cc1ccc(Nc2nn(CN3CCOCC3)c(=S)s2)cc1 = -35 | 56 | 72 | ·
# Results for Cc1cc(NC(=O)Nc2ccc3nc(N4CCOCC4)cc(C)c3c2)ccc1Br = 14 | · | · | 102
# Results for CCc1cccc(C)c1NC(=O)C1CCCN1S(=O)(=O)c1cccc2nsnc12 (stereo not given) = -108 | 97 | 79 | 104

# Part of the list above in order of heavy-atom count, low to high:
# Every second line gives: HCMV UL50-53 inh	Sa growth 42C	Sa growth 42C second temp	GIV Gai3 FP
Cc1ccc(Nc2nn(CN3CCOCC3)c(=S)s2)cc1
    -35	56	72	·
Cc1ccc(Nc2nc(Nc3ccccc3)c3cnn(C)c3n2)cc1C
    -4	·	·	105
Cc1ccccc1NC(=O)NCCCN1CCN(c2ccccc2F)CC1
    68	102	107	108

# (cont.)
# Every second line gives: HCMV UL50-53 inh	Sa growth 42C	Sa growth 42C second temp	GIV Gai3 FP
CC(C)c1ccc(S(=O)(=O)N2CCN(C(=O)c3cc(-c4ccccc4)n[nH]3)CC2)cc1
    3	107	100	103
NC(=O)NC(=O)CC1Sc2ccccc2NC1=O (stereo not given)
    15	99	100	99
CCOC(=O)c1sc(NC(=O)C=C(C)C)c(C#N)c1C
    -2	126	92	100
Cc1ccc(-n2nnc(-c3nsc(NC(=O)c4cccc(Cl)c4)n3)c2C)cc1C
    ·	113	67	103
CCOC(=O)C1=C(C)N=c2s/c(=C3\C(=O)N(C)c4ccccc43)c(=O)n2C1c1ccccc1 (stereo not given)
    -18	·	·	87
CC(=O)c1ccc(NC(=O)CSc2nc3c(=O)n(C)c(=O)n(C)c3n2C)cc1
    ·	101	89	102
Cc1[nH]c2ccccc2c1C(=O)COC(=O)C1CCC(=O)N1 (stereo not given)
    -9	90	89	·
N#CC(=C1SCCS1)c1ccc(Cl)cc1
    2	94	97	95
CNC(=O)c1c(-c2ccccc2)oc2ccc(OC)cc12
    -22	105	76	106
O=C(CCN1C(=O)c2cccc3cccc(c23)C1=O)N1CCN(Cc2ccc3c(c2)OCO3)CC1
    -58	·	·	98
OCc1cc(-c2ccc(Cl)c(Cl)c2)no1
    -3	99	64	112
COc1ccc(S(=O)(=O)N2CCc3cc4cc(C)ccc4nc32)c(OC)c1
    0	·	·	110
O=c1c2c(-c3ccccc3)csc2ncn1CCCn1ccnc1
    -13	·	·	95
Cc1ccccc1C(=O)NCC(c1ccccc1)c1c[nH]c2ccccc12 (stereo not given)
    -10	·	·	107
CC1CCN(S(=O)(=O)c2ccc3c(c2)N(CC(=O)NCC(C)c2ccccc2)C(=O)CO3)CC1 (stereo not given)
    -24	97	85	98
Cc1ccccc1C1CC(=O)c2cnc(N3c4ccccc4CC3C)nc2C1 (stereo not given)
    3	·	·	94
COc1cccc(OC)c1C(=O)Nc1ccc2c(c1)CCCN2C(=O)C1CC1
    -35	92	84	106
Cc1cc(CNC(=O)Nc2c(C)noc2C)c(C(F)(F)F)o1
    ·	108	86	103
OCCN1CCSC1=Nc1cccc2ccccc12
    -27	90	93	·
CCC(=O)Nc1ccsc1C(=O)OC
    -3	91	85	100
COc1ccc(NC(=O)c2sc3nc4n(c(=O)c3c2C)CCCCC4)cc1Cl
    -6	·	·	100
CSc1nc2ccccc2n1CCO
    ·	121	92	96
Cc1ccc(CCP(=O)(O)CCC(=O)O)cn1
    ·	132	89	105
CCCCOc1cccc(C(=O)N(Cc2ccccc2)C2CCS(=O)(=O)C2)c1 (stereo not given)
    -20	·	·	103
O=S1(=O)N=C2CCCCCN2C(CSc2nnc(CN3CCCCC3)n2Cc2ccccc2)N1 (stereo not given)
    17	133	94	·
COC(=O)CCC(=O)c1oc2ccccc2c1NC(=O)CCCN1C(=O)c2ccccc2C1=O
    5	116	96	104
CC1CCCC(C)N1C(=O)/C(C#N)=C/c1ccc2c(c1)OCO2 (stereo not given)
    4	96	98	·
COc1ccccc1CNC(=O)C(C)Oc1ccccc1 (stereo not given)
    -12	85	88	·
O=C(O)c1ccc2c(=O)nc3n(c2c1)Cc1ccccc1-3
    -14	115	92	·
N=C(N)SCc1ccc(C(F)(F)F)cc1
    -4	·	·	106
COc1cc(C(F)(F)F)nc2ccc(C)c(NC(=O)Nc3ccc(OC(F)(F)F)cc3)c12
    22	86	94	107
CN1c2ccc(Cl)cc2-c2nc(SCC(N)=O)ncc2S1(=O)=O
    -12	·	·	112
O=C(NCc1ccccn1)c1nc[nH]c1C(=O)N1CCC(O)C1 (stereo not given)
    -24	·	·	103
CCCCN(C(=O)CN1CCc2ccccc21)c1c(N)n(Cc2ccccc2)c(=O)[nH]c1=O
    -13	97	89	·
CC1Cc2ccccc2N1C(=O)/C=C/c1cn[nH]c1-c1cc2ccccc2o1 (stereo not given)
    -18	76	83	·
CCN(CC)CCNC(=O)c1cn(CCOC)c(=O)c2c1c1ccccc1n2C
    -26	102	87	106
O=C(N/N=C/c1ccc2c(c1)OCO2)c1ccccc1
    -79	102	87	106
O=S(=O)(c1ccc2c(c1)OCCCO2)N1CCN(Cc2ncc(-c3ccccc3)o2)CC1
    -7	101	90	·
O=S(=O)(NCC1CCCO1)c1cccc(C(F)(F)F)c1 (stereo not given)
    -31	93	87	·
c1ccc2c(c1)NC(c1ccc3nsnc3c1)c1cccn1-2 (stereo not given)
    -9	98	94	102

# Of the compounds above, 8 contain two or more sulfur atoms:
# Every second line gives: HCMV UL50-53 inh	Sa growth 42C	Sa growth 42C second temp	GIV Gai3 FP
CNC(=O)N(O)C1N(c2ccccc2)C(=S)SC1(C)C (stereo not given)
    -13	100	95	97
COc1ccc(CNC(=O)C(NS(=O)(=O)c2cccc3nsnc23)c2ccccc2)cc1 (stereo not given)
    -68	101	89	100
CSc1nc2c(sc3ccccc32)c(=O)n1CCCC(=O)NC1CCCCC1
    0	101	88	102
CCc1cccc(C)c1NC(=O)C1CCCN1S(=O)(=O)c1cccc2nsnc12 (stereo not given)
    -108	97	79	104
Cc1ccc(Nc2nn(CN3CCOCC3)c(=S)s2)cc1
    -35	56	72	·
N#CC(=C1SCCS1)c1ccc(Cl)cc1
    2	94	97	95
O=S1(=O)N=C2CCCCCN2C(CSc2nnc(CN3CCCCC3)n2Cc2ccccc2)N1 (stereo not given)
    17	133	94	·
CN1c2ccc(Cl)cc2-c2nc(SCC(N)=O)ncc2S1(=O)=O
    -12	·	·	112

# Additional compounds follow:
# Every second line gives: HCMV UL50-53 inh	Sa growth 42C	Sa growth 42C second temp	GIV Gai3 FP
Cc1cc(C)cc(NC(=O)NN2C(C)CCCC2C)c1 (stereo not given)
    -4	96	83	106
CN1C(=O)C(C)(C)c2cc(S(=O)(=O)N3CCCC3C(=O)Nc3ccc(F)cc3)ccc21 (stereo not given)
    ·	95	74	100
CCOC(=O)c1c(C)oc2nc(C)nc(NCc3ccc(CN4CCCCC4CC)o3)c12 (stereo not given)
    -29	103	76	101
CCN(CC)c1nc2ccccc2nc1C(C#N)C(=O)NCCc1ccccc1 (stereo not given)
    -6	110	93	92
CCc1noc(-c2ccc(OCC(=O)Nc3nnc(CC(C)C)s3)cc2)n1
    -32	·	·	106
O=C(CSc1nc2cc(Cl)ccc2o1)NCC(F)(F)F
    5	107	97	·
CCC(=O)N1CCc2cc(Br)cc(S(=O)(=O)N3CCC(C(=O)NCc4ccc(C)o4)CC3)c21
    -6	104	92	109
CCOC(=O)c1ccc(NS(=O)(=O)c2ccc3[nH]c4c(c3c2)CCCCC4)cc1
    ·	112	81	106
Clc1ccccc1-c1noc(CSc2ccc(-c3ccccc3)nn2)n1
    -16	·	·	108
COc1ccc(-n2c(SC(C)C#N)nc3ccccc32)cc1 (stereo not given)
    1	109	87	·
O=S(=O)(NCCN1CCCC1)c1cccc2nsnc12
    -98	·	·	103
N/C(=N/O)c1cnc2n(c1=O)CCS2
    -13	92	91	110
CCOc1ccccc1CNC(=O)c1cc2cc(S(=O)(=O)N3CCCCC3)ccc2n1C
    ·	90	82	98
Cc1ccc(N2CCN(c3ccc(C)cc3)C2c2cccs2)cc1
    ·	89	80	101
C=C(C)Cn1c(CCCNC(=O)COc2ccccc2)nc2ccccc21
    -24	·	·	101

# Screens deposited in PubChem by ICCB-Longwood Screening Facility, Harvard Medical School.
